D2 ag = Beta-Arrestin HTS for Positive Allosteric Modulators of the Human D2 Dopamine Receptor: Agonists; activation, % (no concentration beside the values); DiscoveRx PathHunter D2 beta-arrestin, luminescence, 90 min; 100% = 57 uM dopamine signal; 360,000 tested, 0.084% active; in the data active = activation above about 40%; inconclusive = about 15% to 40%; inactive = below about 15%; note: compound concentration not given in the record; the text of the record calls up to 30% inactive
Target sequence (P14416 whole entry, looked up): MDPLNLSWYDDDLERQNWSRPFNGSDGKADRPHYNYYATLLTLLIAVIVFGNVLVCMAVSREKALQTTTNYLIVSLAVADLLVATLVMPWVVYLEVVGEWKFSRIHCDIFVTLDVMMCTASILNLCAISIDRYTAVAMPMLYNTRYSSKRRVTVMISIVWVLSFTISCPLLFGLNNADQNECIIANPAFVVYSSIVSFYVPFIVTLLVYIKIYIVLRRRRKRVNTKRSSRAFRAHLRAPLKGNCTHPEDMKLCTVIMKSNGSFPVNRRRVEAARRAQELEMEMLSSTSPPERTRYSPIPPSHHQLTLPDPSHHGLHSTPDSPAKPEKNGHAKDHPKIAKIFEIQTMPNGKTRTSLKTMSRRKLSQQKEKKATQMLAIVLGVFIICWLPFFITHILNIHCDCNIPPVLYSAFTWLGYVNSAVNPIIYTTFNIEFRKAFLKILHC
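Agonist mode: compounds alone added to overnight-plated D2 PathHunter cells for 90 min at 37 C, with 57 uM final dopamine (EC100) defining full response. Beta-arrestin recruitment detected by chemiluminescent reagent, read after 1 h at ambient temperature.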
Six1-Eya2 inh = qHTS Assay for Inhibitors of the Six1/Eya2 Interaction; Homeobox protein SIX1 (Homo sapiens) + Protein phosphatase EYA2 (Homo sapiens), …; AlphaScreen GST-Six1/His-Eya2 binding, biochemical; active compounds read low; control for the full effect not named in the record; activity change, % (no concentration beside the values); 360,000 tested, 0.56% active; in the data active = activity change below about -65%; inconclusive = about -30% to -65%; inactive = above about -30%; note: % is set by controls: 0 for no effect and ±100 for the full control effect
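AlphaScreen luminescence read after one hour at 37 °C in darkness. Pin-transferred compounds met GST-Six1 and His-Eya2 protein (5X stock 250 nM/500 nM) plus glutathione donor and Ni-chelate acceptor beads (5X, 50 ug/mL).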
TRPML1 ag = qHTS for Agonists of the Human Mucolipin Transient Receptor Potential 1 (TRPML1). TRPML1-expressing cells, Ca2+ dye fluorescence, FDSS; host cell line not named in the record; reference of the full effect not given here. activation, % (no concentration beside the values). 410,000 tested, 0.12% active. Mucolipin-1 (Homo sapiens), Q9GZU1. AID 624414, 2012; in the data active = activation above about 50%; inconclusive = about 30% to 50%; inactive = below about 30%; note: 0% is about no effect; the text of the record puts the active cut at 80%
Target sequence (Q9GZU1 whole entry, looked up): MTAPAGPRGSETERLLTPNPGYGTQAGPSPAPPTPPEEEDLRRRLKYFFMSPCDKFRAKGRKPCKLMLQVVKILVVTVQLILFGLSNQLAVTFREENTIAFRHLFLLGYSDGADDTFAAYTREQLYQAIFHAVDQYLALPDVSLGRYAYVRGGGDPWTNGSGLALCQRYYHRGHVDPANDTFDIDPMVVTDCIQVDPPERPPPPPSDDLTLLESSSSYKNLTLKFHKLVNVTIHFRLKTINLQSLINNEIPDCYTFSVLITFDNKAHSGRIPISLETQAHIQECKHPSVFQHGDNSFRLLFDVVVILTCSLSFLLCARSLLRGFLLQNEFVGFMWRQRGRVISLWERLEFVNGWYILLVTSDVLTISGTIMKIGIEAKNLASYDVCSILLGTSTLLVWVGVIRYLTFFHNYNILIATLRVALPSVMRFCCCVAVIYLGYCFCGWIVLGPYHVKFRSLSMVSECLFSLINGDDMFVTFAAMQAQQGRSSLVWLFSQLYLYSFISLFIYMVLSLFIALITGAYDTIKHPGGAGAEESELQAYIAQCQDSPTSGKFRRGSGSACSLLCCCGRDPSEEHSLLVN
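Cells: TRPML1-DL, 1X Tet inducer, ~16 h at 37 degrees C/5% CO2. Dye: ABD Ca8 no-wash + quencher, 45-90 min RT. Read: 10 s baseline, compound add, 110 s agonist phase; 54-4 EC80 (4uM final), 110 s antagonist phase.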
CtBP-E1A blk = qHTS Assay for Inhibitors of the CtBP/E1A Interaction; CtBP / adenovirus E1A interaction (AlphaScreen); AlphaScreen GST-E1A/His-CtBP binding, 1536-well; active compounds read low; control for the full effect not named in the record; activity change, % (test concentration not listed); 340,000 tested, 0.49% active; AID 651724, 2012; in the data active means activity change below about -65%; inconclusive means about -30% to -65%; inactive means above about -30%; note: % is set by controls: 0 for no effect and ±100 for the full control effect
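In 5 uL wells, 23 nL compound meets equimolar GST-E1A and His-CtBP (5X stock 125 nM each) for 2 h, 37 °C. Beads (5X, 50 ug/mL) then 1 h, 37 °C, dark.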
PINK1 modulator = A Quantitative High throughput Screen to Identify Chemical Modulators of PINK1 Expression. PINK1 immunofluorescence, high-content cytometry, 24 h. Potency, µM (highest dose often 76.6 µM), inactives show at the highest dose activation (PINK1 increase), hits mostly activators. 410,000 tested, 0.2% active; active = well fitted activation curve with a large enough effect; inconclusive = small, poorly fitted or top-dose-only effect; inactive = flat fitted curve, though single readings scatter; cell line not stated here;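 note: potency is the fitted concentration of half-maximal effect; % of control where 0% means no effect; nearly all actives have a fitted effect of over 65% in size; a mitochondrial uncoupler was the plate control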
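Stable cell line, 250 cells/well, 12 h attachment; compounds pinned at 5 concentrations, 24 h; CCCP control. Fixed with nuclear dye, primary antibodies 12 h at 10 degrees C, secondary plus cell stain; laser-scanning cytometer read.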
TRPML1 inh = qHTS for Inhibitors of the Human Mucolipin Transient Receptor Potential 1 (TRPML1); 390,000 tested, 0.02% active; TRPML1-inducible cells, Ca2+ dye fluorescence, FDSS; active compounds read low; inhibition of EC80 agonist-evoked calcium signal; Mucolipin-1 (Homo sapiens), Q9GZU1; activity change, negative = inhibition, % (test concentration not listed); in the data active means activity change below about -50%; inconclusive means about -30% to -50%; inactive means above about -30%;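 note: stimulus is agonist 54-4 at its EC80 concentration; % is set by controls: 0 for no effect and ±100 for the full control effect; compound concentration not given in the record; the text of the record puts the active cut at -80%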
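Calcium fluorescence in TRPML1-DL cells induced overnight with Tet: a 110 s read after compound pin addition, then a 110 s antagonist read after challenge with 54-4 at 4 uM final (EC80).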
Active calls of the source: *; u = inconclusive; x = no result given; & = joins results of further samples; [ ] = another dose, or the depositor's remark.

SMILES	D2 ag	Six1-Eya2 inh	TRPML1 ag	CtBP-E1A blk	PINK1 modulator	TRPML1 inh
COc1ccc(CCC(=O)Nc2sc(C(=O)N(C)C)c(C)c2C#N)cc1	-0.4	0	0.0	-2	2.2%	-9
COc1ccc(C)cc1Nc1nc(C)nc2sc(C)cc12	-0.4	7	1.8	4	11%	-1
CC(C)CCN1C(=O)c2ccc(C(=O)NCc3ccco3)cc2C1=O	-0.3	-6	1.4	-1	0.1%	-18
Cc1cccc(Oc2ccc(N)cc2)c1	-1.0	-6	2.7	-22	-0.2%	9
O=C(CSc1nc2c(c(=O)n1-c1ccc(Cl)cc1)SCC2)N1CCCC1	2.3	6	5.1	-3	0.1%	3
Cc1[nH]c2ccccc2c1-c1nc2ccccc2[nH]1	1.7	-18	0.0	-13	1.3%	-6
Cn1c(=O)n(CCC(=O)O)c2ccccc21	-2.4	3	1.5	-1	-0.6%	17
CCCn1nnc(NC(=O)C(C)C)n1	-2.3	3	5.2	1	1.4%	8
c1ccc(-c2nc(N3CCN(c4ccccc4)CC3)nc(-n3ccnc3)n2)cc1	-1.5	-10	0.8	-9	13%[38.3 µM]	83
O=C1Nc2c(Br)cccc2C1=O	-14	9	-0.7	1	5.0%	-8
O=C(COc1ccc(S(=O)(=O)N2CCOCC2)cc1)NCC1CCCO1 (stereo not given)	-2.9	3	0.0	13	4.2%	-11
O=C(CN(c1ccccc1Cl)S(=O)(=O)c1ccccc1)NC1CC2CCC1C2 (stereo not given)	-1.4	-4	1.8	2	1.0%	18
Cc1nc(-c2cccc(S(=O)(=O)N3CCC(C)CC3)c2)cs1	0.3	2	0.7	4	1.3%	8
Cc1nn(Cc2ccc(C(=O)N3N=C(C(F)F)CC3(O)C(F)F)o2)c(C)c1[N+](=O)[O-] (stereo not given)	2.5	-5	2.0	4	0.7%	15
Cc1cc(=O)oc2cc(OCC(=O)Nc3nccs3)ccc12	-0.1	-2	0.7	x	0.2%	-10
Cc1c(C(=O)Nc2ccccc2Cl)oc2ccc(S(=O)(=O)N3CCC4(CC3)OCCO4)cc12	-2.4	4	0.7	0	25%[38.3 µM]	0
COc1cc(O)c(C(CCN2CCOCC2)c2ccc3c(c2)OCO3)c(OC)c1 (stereo not given)	-1.9	-16	1.0&1.3	-8	-2.0%	-4&-20
O=C(/C=C/Nc1ccc(F)cc1)c1ccc(Oc2ncccn2)cc1	-3.0	2	1.5	-2	-0.6%	0
CC(OC(=O)CN1C(=O)NC2(CCCC2)C1=O)C(=O)Nc1cccc(Cl)c1 (stereo not given)	-2.2	-1	0.3	3	0.9%	7
CSC(=NC(C)c1ccccc1)NS(=O)(=O)c1cccs1 (stereo not given)	-1.3	10	2.2	-9	-0.9%	-7
CN(CC(=O)Nc1cccc(C(F)(F)F)c1)S(=O)(=O)c1cccs1	x	x	-0.2	x	1.1%	24
COCc1ccc(-c2c(-c3ccccc3OC)sc3cc4c(cc23)OCO4)cc1	-2.3	-1	0.4	2	7.0%	48
COc1ccccc1C(=O)NCCCNc1ccc([N+](=O)[O-])cc1	2.0	7	0.1	15	3.4%	-8
CCN(CC)CCNC(=O)C(Cl)=C1C(Cl)=C(Cl)C(Cl)=C1Cl	0.8	-14	-0.2	-2	4.9%	0
CCN(CC(=O)NCc1cccs1)C(=O)c1cccc(Cl)c1	-0.8	-2	-0.2	0	-1.8%	-3
O=C(CCCn1c(SCC(=O)c2ccc(O)c(O)c2)nc2ccccc2c1=O)NCC1CCCO1 (stereo not given)	-3.5	-8	0.0	-7	-2.1%[38.3 µM]	1
COc1ccc(C)cc1S(=O)(=O)N(CC(=O)Nc1cc([N+](=O)[O-])ccc1C)c1ccc(C)c(C)c1	-4.1	-5	0.9	-1	2.5%	-18
CCOc1ccc(CN2CCN(Cc3cnn(CC)c3C)CC2CCO)cc1 (stereo not given)	-0.7	2	-0.5	x	-0.2%	12
O=C(Nc1ccccc1C(=O)O)c1ccc(NC(=O)C2CCCO2)cc1 (stereo not given)	3.4	-17	-0.1	-4	-1.3%	-5
O=S(=O)(c1ccc2c(c1)OCCO2)N1CCN(c2ncnc3sccc23)CC1	14	-18	1.6	-1	-4.0%	-3

Four consecutive compounds already listed, quoted:
SMILES	D2 ag	Six1-Eya2 inh	TRPML1 ag	CtBP-E1A blk	PINK1 modulator	TRPML1 inh
COc1ccc(CCC(=O)Nc2sc(C(=O)N(C)C)c(C)c2C#N)cc1	-0.4	0	0.0	-2	2.2%	-9
COc1ccc(C)cc1Nc1nc(C)nc2sc(C)cc12	-0.4	7	1.8	4	11%	-1
CC(C)CCN1C(=O)c2ccc(C(=O)NCc3ccco3)cc2C1=O	-0.3	-6	1.4	-1	0.1%	-18
Cc1cccc(Oc2ccc(N)cc2)c1	-1.0	-6	2.7	-22	-0.2%	9

Additional compounds follow.
SMILES	D2 ag	Six1-Eya2 inh	TRPML1 ag	CtBP-E1A blk	PINK1 modulator	TRPML1 inh
CC(C)C(=O)N1CCCC1(C)C(=O)Nc1ccc2c(c1)OCO2 (stereo not given)	-5.7	4	-0.2	4	0.2%	x
CCN(C(=O)c1cc(S(=O)(=O)N2CCCC2)cn1C)c1ccc(OC)cc1	x	x	-1.0	x	0.9%	14
O=C(Nc1ccc2c(c1)OCO2)C1CC(=O)N(c2ccc3c(c2)OCCO3)C1 (stereo not given)	-0.3	-5	-0.3	-5	-0.8%	0
Cc1cccnc1Nc1nc(-c2ccc(O)c(O)c2)cs1	6.6	-21	4.7	-2	u	17
O=C(O)CSCC(=O)Nc1ccc(Cl)cc1C(F)(F)F	-3.5	2	0.0	7	0.7%	-5
COc1ccc(S(=O)(=O)N(CC(C)C)CC(C)C)c2cccnc12	u	-17	0.1	-9	4.1%	9
Cc1ccc(NC(=O)c2cc(-c3ccccc3)n[nH]2)cc1	1.1	2	0.3	-2	0.9%	0
Clc1ccc(C(c2nnnn2C2CCCC2)N2CCSCC2)cc1 (stereo not given)	-0.7	-6	1.2	6	-2.9%[38.3 µM]	14
CCn1c(C(=O)NCCc2ccc(OC)c(OC)c2)cc2sc(Cl)cc21	x	x	1.7	x	1.4%	17
Cc1ccc(-n2nc(CO)c(C(=O)NCc3ccccn3)n2)cc1	x	x	1.7	x	3.0%	-14
CCN(CC)S(=O)(=O)c1ccc(NC(=O)COC(=O)CN2C(=O)c3ccccc3C2=O)cc1	2.3	0	-0.8	1	-0.4%	16
CCC(C(=O)Nc1ccc(C(=O)N2CCCC2)cc1)c1ccccc1 (stereo not given)	3.6	2	1.1	-25	2.4%	-1
CCc1ccc(NC(=O)Cn2nnc(C(=O)NCCc3ccccc3)c2N)cc1	x	x	-0.6	x	1.4%	14
Cc1nccn1CCC(=O)NC1CC(C)(C)Cc2c1cnn2-c1ccccc1 (stereo not given)	3.0	7	0.3	0	-1.3%	-12
c1cncc(COC2CCCN(Cc3nc(-c4cccs4)no3)C2)c1 (stereo not given)	-2.7	4	0.8	x	0.2%	8
CCOc1cc2[nH]c(=S)n(CCCCC(=O)NCc3ccco3)c(=O)c2cc1OCC	-2.8	3	0.9	0	1.4%[38.3 µM]	-7
CCc1ccccc1NC(=O)C1CC(c2ccc(OC)cc2)=NO1 (stereo not given)	-9.9	0	x	-2	3.4%	x
COc1ccc(C2=Nn3c(nnc3C3CCCCC3)SC2)cc1OC	1.8	-3	1.4	-13	6.3%	-8
COc1ccc2cc(-c3[nH]ncc3CN3CCCCO3)ccc2c1	-2.1	2	-0.7	-4	-0.3%	23
O=C(Nc1ccc(-c2nc3ncccc3o2)cc1)c1ccc(Br)o1	-2.9	0	-0.9	-3	14%	7
CCn1c(SCC(=O)NCc2ccco2)nnc1-c1ccc(N)cc1	-1.9	9	-0.1	-6	-1.5%	6
COc1cccc(C(C)(O)c2nc(-c3ccccc3C)cs2)c1 (stereo not given)	-2.2	6	-0.4	12	4.1%	x
c1ccc(-c2cccc(-c3ccccn3)n2)nc1	8.0	-91*	-0.5	-101*	u	-2
CCN(Cc1ccccc1)C(=O)c1[nH]c2ccc(OC)cc2c1C	1.5	-4	1.3	-8	1.2%	-4
O=C(Nc1cccc(-c2ccc(N3CCOCC3)nn2)c1)c1ccc(F)cc1F	-6.4	-21	-0.1	-1	10%	-8
Cc1ccc2oc(=O)c3cc(C(=O)NCCCN4CCc5ccccc5C4)sc3c2c1	0.4	-15	5.1	-12	-0.2%	7
O=C(NC1CCCC1)c1nc2c(nnn2Cc2ccccc2Cl)c(=O)[nH]1	-2.0	-2	1.9	8	x	7
Cc1cc(CN2CCC(n3nccc3NC(=O)c3ccccc3C)CC2)n[nH]1	-0.6	-3	-0.4	-14	1.3%	-3
COc1cc(NC(N)=S)c(OC)cc1Cl	2.2	3	0.3	2	1.8%	-13
O=C(c1ccc(F)cc1)N1CCC(N2CCOCC2)CC1	-1.7	6	-0.5	1	2.5%	-8

4 compounds from above, showing only Six1-Eya2 inh and D2 ag.
Molecule	Six1-Eya2 inh	D2 ag
CCn1c(SCC(=O)NCc2ccco2)nnc1-c1ccc(N)cc1	9	-1.9
O=C(Nc1cccc(-c2ccc(N3CCOCC3)nn2)c1)c1ccc(F)cc1F	-21	-6.4
Cc1cc(CN2CCC(n3nccc3NC(=O)c3ccccc3C)CC2)n[nH]1	-3	-0.6
Cc1ccc2oc(=O)c3cc(C(=O)NCCCN4CCc5ccccc5C4)sc3c2c1	-15	0.4

(cont.)
SMILES	D2 ag	Six1-Eya2 inh	TRPML1 ag	CtBP-E1A blk	PINK1 modulator	TRPML1 inh
COCCn1c(=O)[nH]c2cc(C(=O)NCCc3ccc(OC)c(OC)c3)ccc2c1=O	-3.5	3	0.1	-3	-1.8%	2
Cc1cccc(NC(=O)c2ccc3c(c2)CCN3S(C)(=O)=O)c1C	-1.9	4	x	x	0.9%	x
COc1ccc(-n2cnnc2SCC(=O)NC2CC2)cc1	-1.2	7	0.2	2	0.2%	2
Cc1ccccc1NS(=O)(=O)c1ccc(C(=O)OCC(=O)NCC(C)C)cc1	-0.4	11	-0.2	u	5.9%	-1
CC(=O)c1ccc(N2CCN(C(=O)CCC(=O)Nc3ccc4nc(N5CCN(C)CC5)cc(C)c4c3)CC2)cc1	3.8	-8	-0.6	-3	2.7%	-8
COc1ccc(Cc2nnc(Nc3c(C)cccc3C)o2)cc1OC	0.1	2	1.9	11	0.9%	9
COCCCN1C(=O)C(CC(=O)NCCN2CCOCC2)CC(C(=O)N(C(C)C)C(C)C)=C1C (stereo not given)	3.0	28	-0.6	29	-1.1%	x
O=C(O)CCC(=O)N1CCc2cc(S(=O)(=O)N3CC=C(c4ccccc4)CC3)ccc21	1.3	-5	0.2	1	0.7%	13
COc1ccc(-c2nc3cc(NC(=O)c4ccc5c(c4)OCO5)ccc3o2)cc1	7.7	3	1.0	-1	9.6%	-13

Screening data: PubChem BioAssay, National Center for Advancing Translational Sciences (NCATS)
